Measles inh = inhibitors of measles virus growth in infected cells; infected Vero cells, GFP fluorescence, 64 h; stronger effect = lower value; z-score (test concentration not listed); 33,000 compounds, 0.1% hits; AID 745;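 active = z-score under -3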;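 note: score is relative to mean and SD of the compound wells of a plate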
Active calls of the source: *.

SMILES	Measles inh
O=C(O)c1ccc(N2CC3CC(C2)c2cccc(=O)n2C3)c(NS(=O)(=O)c2cccc(C(F)(F)F)c2)c1 (centres undefined)	1.6
CCC(=O)Nc1nc2ccccc2n1CCN1CCCCC1	-0.37
CC(C)(C)NC(=O)c1nn2c(C(F)(F)F)cc(-c3ccc(Br)cc3)nc2c1Cl	0.09
COc1ccc(C2C=C(c3ccc(-c4ccccc4)cc3)Nc3ncnn32)cc1 (centres undefined)	3
CNc1nc(C)cc(C(F)(F)F)n1	-0.45
CCOc1ccc(S(=O)(=O)N2CCc3ccccc3C2)cc1	0.97
O=C1CC(c2ccccc2Cl)CC2=C1C(c1cccnc1)Nc1ccccc1N2 (centres undefined)	-1.1
Cc1ccc(-c2nn(-c3cc(Cl)ccc3[N+](=O)[O-])c(=O)c3ccccc23)c(C)c1	0.04
CCCCC(C(=O)OCC)N1C(=O)C2CC=C(Cl)CC2C1=O (centres undefined)	1.7
CCn1cc(C(=O)NCCCN2CCOCC2)c2cc(OC)c(OC)cc2c1=O	-0.6
O=C(CN1C(=O)c2cccc([N+](=O)[O-])c2C1=O)Nc1ccc(Br)cc1	0.83
CCN(CC)c1ncnc2c1c(-c1ccccc1)cn2-c1ccc(C)c(Cl)c1	-0.26
O=C(CSc1nc2ncccc2[nH]1)Nc1cccc(Br)c1	-0.25
O=C(Nc1ccc(Cl)cc1)Nc1cc(C(=O)N2CCCC2)ccc1N1CC2CC(C1)c1cccc(=O)n1C2 (centres undefined)	0.06
CC(=O)N1CCCc2cc(S(=O)(=O)Nc3ccc(Br)c(C)c3)ccc21	-0.5
Cc1ccnc(NC(c2ccccc2Cl)c2ccc3cccnc3c2O)c1 (centres undefined)	-0.73
CCC(=O)N1CCc2cc(Br)cc(S(=O)(=O)Nc3c(C)n(C)n(-c4ccccc4)c3=O)c21	-0.78
O=C(Nc1c2c(nn1-c1cccc(Cl)c1)CSC2)c1ccccc1Cl	-1.1
CC(=O)c1c(C)oc2c(Cl)cc(NS(=O)(=O)c3ccc4ccccc4c3)cc12	-0.18
CC(=O)Nc1ccc(N=Cc2cc(C)cc(I)c2O)cc1	0.08
S=c1[nH]c(-c2ccc(Oc3ccccc3)cc2)cn1-c1ccccc1	0.12
O=C(NCCC12CC3CC(CC(C3)C1)C2)c1ccc(S(=O)(=O)N2CCCC2)cc1	1.8
CCc1cc2c(=O)c(-c3nc4ccccc4s3)coc2c(CN(C)C)c1O	0.57
Cc1cc(C)cc(Oc2coc3cc(OC(=O)c4cccs4)ccc3c2=O)c1	-0.7
CCCCN(C)C(=O)c1cn(CC)c2nc(C)ccc2c1=O	-1.4
Continued.
SMILES	Measles inh
Cc1cc(C(=O)NC(C)CCc2ccccc2)c2ccccc2n1 (centres undefined)	-1.7
CC(=O)C1=C(O)C(=O)N(Cc2ccco2)C1c1ccccc1[N+](=O)[O-] (centres undefined)	-0.13
COc1ccc(NC(=O)CSc2nc3c(c(=O)n2-c2ccc(Br)cc2)SCC3)c(OC)c1	-1
Clc1ccccc1Cn1c(COc2ccccc2)nc2ccccc21	-0.6
Cc1cc(OC(C)C(=O)N2CCc3ccccc32)ccc1Cl (centres undefined)	0.88
CC1(C)CC2CC(C)(CN2C(=O)c2cc3nc(-c4cccs4)cc(C(F)(F)F)n3n2)C1 (centres undefined)	-0.25
O=C(O)CSCSCC(=O)O	0.54
Cc1cc(C)c(NS(=O)(=O)c2cnc[nH]2)c(C)c1	-0.8
Cn1c(SCC(N)=O)nc2c1c(=O)[nH]c(=O)n2C	0.37
C#CC(O)(c1ccccc1)c1ccc(OC)cc1 (centres undefined)	-0.09
CCOC(=O)COc1nc(C)cc(C)n1	1.8
O=C(COc1ccccc1)Nc1cccc(-c2nnc(-c3ccco3)o2)c1	0.55
COc1ccc(C(=O)Nc2ccc(S(=O)(=O)N3CCCCC3C)cc2)c(OC)c1OC (centres undefined)	0.62
O=C(CSc1nc2sc3c(c2c(=O)[nH]1)CCCC3)N1CCCCC1	-0.58
CC(C)(C)c1ccc(-c2cc3nc4c(c(=O)n3[nH]2)CCCC4)cc1	0.76
CCOc1ccc(N2C(=O)C(N3C(=O)c4ccccc4C3=O)C2c2cc(OC)c(OC)c(OC)c2)cc1 (centres undefined)	-0.15
CCC(=O)N1CCc2cc(S(=O)(=O)CCC(=O)Nc3nc4ccc(OC)cc4s3)ccc21	-1.2
C=CCOc1cccc(C(Nc2cc(C)ccn2)c2ccc3ccc(C)nc3c2O)c1 (centres undefined)	-0.66
CC1CC(=O)Nc2ccc(N)cc2N1C (centres undefined)	-0.51
O=C(Nc1cc(C(F)(F)F)cc2nsnc12)c1sc2ccccc2c1Cl	-0.43
CC(=O)c1ccc(NC(=NS(=O)(=O)c2ccccc2)c2ccc(F)cc2)cc1	-0.21
CC1(C)C(C=C(Cl)Cl)C1C(=O)N1CCc2ccccc21 (centres undefined)	0.69
CC(=O)N1CCCCC1c1ccc[n+](C)c1 (centres undefined)	0.01
Cc1ccc(CNC(=O)c2cn(C)c(=O)c3c2c2ccccc2n3C)o1	-1.1
COCCCNC(=O)C1CCN(S(=O)(=O)c2ccc(Cl)cc2)CC1	-1.5

4 entries picked at random from those above, as already listed:
SMILES	Measles inh
Cc1cc(C)c(NS(=O)(=O)c2cnc[nH]2)c(C)c1	-0.8
CC(=O)N1CCCCC1c1ccc[n+](C)c1 (centres undefined)	0.01
Cn1c(SCC(N)=O)nc2c1c(=O)[nH]c(=O)n2C	0.37
CCOc1ccc(N2C(=O)C(N3C(=O)c4ccccc4C3=O)C2c2cc(OC)c(OC)c(OC)c2)cc1 (centres undefined)	-0.15

Next part:
SMILES	Measles inh
CC1CN(C(=O)c2cc(-c3ccccc3)nc3ccccc23)CC(C)O1 (centres undefined)	0.86
COC(=O)C(=O)c1c[nH]c2ccccc12	0.33
Cc1c(NS(=O)(=O)c2ccccc2)cc(Cl)c(O)c1C	-0.39
COc1cc(C=Nc2c(C)n(C)n(-c3ccccc3)c2=O)cc(OC)c1OC	-0.01
Cc1ccc(S(=O)(=O)N(C)CC(=O)OCc2ccc([N+](=O)[O-])cc2)cc1	-0.54
CC1CCCCC1NC(=O)c1cc(-c2cccs2)nc2ccccc12 (centres undefined)	0.66
COc1ccc(C(=O)N2CCN=C2SCc2cc(C)ccc2C)cc1OC	0.14
COc1ccc(C2=CC(c3ccc(Cl)cc3)n3c(nc4ccccc43)N2)cc1 (centres undefined)	-0.22
COc1ccc(-c2cc(C(F)(F)F)nc(NC3CCCC3)n2)cc1	-0.88
COc1ccc(C(=O)Nc2cc(C)c3c(=O)oc4ccccc4c3n2)cc1OC	0.1
Cc1ccc(C(=O)Oc2ccc3c(=O)c(Oc4cc(C)ccc4C)coc3c2)cc1	-0.13
O=C(O)CCc1nn2c3ccccc3n(CC(=O)c3ccc(Br)cc3)c2nc1=O	-0.66
Cc1ccc(CCNC(=O)C2CC(=O)N(C3CCCCCCC3)C2)cc1 (centres undefined)	-1.7
Cc1cc(=O)oc2c1c(C)nn2-c1ccc(Cl)cc1	0
O=CNC1CCCc2c1[nH]c1ccc(C(F)(F)F)cc21 (centres undefined)	-1.6
O=[N+]([O-])c1ccc(Sc2nc3ccccc3[nH]2)c(Cl)c1	-0.91
OC(CN1CCN(C2c3ccccc3-c3ccccc32)CC1)Cn1c2ccccc2c2ccccc21 (centres undefined)	-1
Cn1c2ccccc2c2c(C(=O)N3CCOCC3)cn(C3CCCCC3)c(=O)c21	-0.12
CCC(C)NC(=O)c1ccc2c(=O)n(CCC3=CCCCC3)c(=O)[nH]c2c1 (centres undefined)	-0.1
Oc1ccc(C2Nc3ccccc3-c3nnc(SCc4ccccc4)nc3O2)cc1O (centres undefined)	-0.72
O=C(O)c1ccc2c(c1)C(=O)N(c1c[nH]c(=O)[nH]c1=O)C2=O	-0.02
O=C(NCC1CCCO1)Nc1cccc(Cl)c1 (centres undefined)	0.54
COc1ccccc1C1CC(c2ccc(Br)cc2)=NN1C(=O)c1ccc(C)cc1 (centres undefined)	0.25
COCCCNC(=O)C1CCC(=O)N1Cc1ccc(F)cc1 (centres undefined)	-0.88
COC(=O)c1ccc(C2Oc3ccccc3C3=C2C(c2ccc(F)cc2)n2ncnc2N3)cc1 (centres undefined)	-0.28

Compounds above with a furan ring, fused or not:
SMILES	Measles inh
CC(=O)c1c(C)oc2c(Cl)cc(NS(=O)(=O)c3ccc4ccccc4c3)cc12	-0.18
CC(=O)C1=C(O)C(=O)N(Cc2ccco2)C1c1ccccc1[N+](=O)[O-] (centres undefined)	-0.13
O=C(COc1ccccc1)Nc1cccc(-c2nnc(-c3ccco3)o2)c1	0.55
Cc1ccc(CNC(=O)c2cn(C)c(=O)c3c2c2ccccc2n3C)o1	-1.1

In the list so far, these contain a COOH group:
SMILES	Measles inh
O=C(O)c1ccc(N2CC3CC(C2)c2cccc(=O)n2C3)c(NS(=O)(=O)c2cccc(C(F)(F)F)c2)c1 (centres undefined)	1.6
O=C(O)CSCSCC(=O)O	0.54
O=C(O)CCc1nn2c3ccccc3n(CC(=O)c3ccc(Br)cc3)c2nc1=O	-0.66
O=C(O)c1ccc2c(c1)C(=O)N(c1c[nH]c(=O)[nH]c1=O)C2=O	-0.02

Continued:
SMILES	Measles inh
CC1=C(C(=O)OCCc2ccccc2)C(c2ccc(F)cc2)C2=C(CC(c3cccs3)CC2=O)N1 (centres undefined)	-0.36
CCOC(=O)c1cc2c(=O)n3ccccc3nc2n(CCCOC)c1=NC(=O)c1ccc(C(F)(F)F)cc1	-0.55
COc1ccc(-n2nc(C(=O)NCC(=O)N(C)Cc3ccccc3)c3ccccc3c2=O)cc1	0.81
O=C1NCCCN1Cc1cccc(Cl)c1	1.1
Oc1cccc2ccc(C=Cc3ccc(Cl)cc3)nc12	0.08
N#Cc1cc2c(nc1SCC(=O)c1ccc(Cl)cc1)CCCC2	0
Cc1cc(C)c2c(N)c(S(=O)Cc3ccc(Cl)cc3)sc2n1 (centres undefined)	0.25
Cc1ccc(Nc2c(-c3ccc(C)o3)nc3ccc(Cl)cn23)cc1	-1.6
CCc1ccc(NC(=O)Cn2cnc3sc(C)c(S(=O)(=O)N4CCN(c5ccccc5OC)CC4)c3c2=O)cc1	-0.48
CCCC12CN3CC(C)(CN(C1)C3c1ccccc1Cl)C2=O (centres undefined)	-0.48
O=C(Nc1ccccc1C(F)(F)F)c1cc2nc(-c3cccs3)cc(C(F)(F)Cl)n2n1	-1.2
COCCCNC(=O)c1cc(Nc2cc(C)cc(C)c2)nc2ccccc12	-0.76
O=C(Nc1cc2c(ccc3ccccc32)oc1=O)C1CCCCC1	-0.73
CCc1sc(-c2cc3ccc(O)cc3oc2=O)nc1-c1ccc(C)cc1	5.3
COCCOC(=O)C1=C(C)NC2=C(C(=O)CC(c3ccccc3OC)C2)C1c1cccc([N+](=O)[O-])c1 (centres undefined)	1.9
Cc1cc(C)c(NC2=CC(=NS(=O)(=O)c3cccs3)c3ccccc3C2=O)c(C)c1	-0.68
O=C(Nc1ccc(Oc2ccccc2)cc1)C1C2C=CC3(O2)C1C(=O)N(C1CCCCC1)C3C(=O)NC1CCCCC1 (centres undefined)	-0.76
NC(=O)C1CC(=O)N(c2ccc(OCC(=O)Nc3ccc(F)cc3)cc2)C1 (centres undefined)	-0.52
CCCSc1nnc(-c2c[nH]c3ccccc23)n1CC	0.62
COc1ccc(CCN2COc3cc(C)c(Cl)c(C)c3C2)cc1	-0.23
Cc1c(Cl)c(Cl)nc(Cl)c1C(=O)NC(=O)NCc1ccccc1Cl	-0.72
CC(C)(C)NS(=O)(=O)c1ccc(Cc2ccc(S(=O)(=O)NC(C)(C)C)cc2)cc1	-0.01
CCOC(=O)C1=CN(c2ccc(C)cc2)C=C(C(=O)OCC)C1c1ccc(F)cc1	0.02
CC1CCCCN1S(=O)(=O)c1ccc(C(=O)Nc2ccc(-c3nc4ccccc4s3)c(O)c2)cc1 (centres undefined)	0.48
Brc1ccc(CSc2ncn[nH]2)cc1	-1.4
Carrying on:
SMILES	Measles inh
CCC(=O)N1CCc2cc(S(=O)(=O)CCC(=O)N3CCN(c4ncccn4)CC3)ccc21	1.4
CCC12CN(C(C)=O)CC(CC)(CN(C(C)=O)C1)C2=O	0.53
CCOC(=O)c1c(NC(=O)c2ccc(C(=O)OC)cc2)sc2c1CCCC2	0.62
O=C(CS(=O)(=O)c1cn(Cc2ccccc2Cl)c2ccccc12)Nc1ccccc1	1.2
CCOc1ccccc1NC(=O)c1sc2ncnc(N3CCN(c4ccc(OC)cc4)CC3)c2c1C	-1.6
CC1CN(Cc2cc([N+](=O)[O-])c3cccnc3c2O)CC(C)O1 (centres undefined)	-0.94
CC(C)CC(=O)N1CCN(Cc2cccc(C(F)(F)F)c2)CC1	-0.29
Cc1ccc(S(=O)(=O)N2CCCN(S(=O)(=O)c3ccc(C)c(C)c3)CC2)cc1C	-0.24
O=C(O)C1Cc2c([nH]c3ccccc23)C(c2ccccc2)N1 (centres undefined)	0.41
COc1ccc(NC(=O)C2CCN(S(=O)(=O)c3ccc(Cl)cc3)CC2)cc1	0.73
COc1ccc(C2Nc3ccc(Cl)cc3C(c3ccccc3)O2)c(OC)c1 (centres undefined)	-0.79
O=C(NCCSCCNC(=O)C(F)(F)F)C(F)(F)F	-0.3
COc1ccc(C[n+]2cccc(C(=O)Nc3c(C)cccc3C)c2)cc1OC	1.8
FC(F)(F)c1cc(-c2cccs2)nc(-n2cncn2)n1	0.52
CCOC(=O)C1=C(c2ccccc2)SC(=C2C(=S)C(C)(C)Nc3ccc(OCC)cc32)S1	-1.2
CCOc1ccc(CCn2c3c(c(=O)[nH]c2=O)C(C(F)(F)F)(C(F)(F)F)N=C(C)N3)cc1OCC	0.05
CC1(c2ccccc2)CC(C)(C)N(C(=O)CCc2ccccc2)c2ccccc21 (centres undefined)	-0.56
COc1ccc2c(c1)CCc1c(C(=O)Nc3ccccc3SC)noc1-2	-0.27
CCOC(=O)C1=C(C)NC2=C(C(=O)C(C(=O)OC)C(C)C2)C1c1ccc(O)c(OCC)c1 (centres undefined)	-0.3
Cc1ccc(NC(=O)CCNS(=O)(=O)c2cccc3nonc23)cc1F	-0.41
Cc1ccc(C(=O)NCCn2c(C)cc3ccccc32)cc1C	0.12

Bioassay records: PubChem, Emory University Molecular Libraries Screening Center

A portion of the library. The share of hits here may be higher or lower than overall.
